HCMV UL50-53 inh: inhibitors of HCMV UL50-UL53 interaction, biochemical, HTRF. HCMV UL50-UL53 nuclear egress complex (human cytomegalovirus). inhibition, % (no concentration beside the values). 190,000 tested, 0.15% active. normalized percent inhibition;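 active means both replicates at 50% or more, plus weaker picks with an unusually low signal ratio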;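 further: stock transfer was 100 nL into about 20 µL; 0% = negative control wells and 100% = wells with untagged competitor protein; inactives centre near -12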
GIV-Gai inh: inhibitors of GIV peptide binding to Galpha-i3, primary screen, biochemical, fluorescence polarization, FITC-GIV GBA peptide, rat Galphai3; 90 min; stronger effect = lower value; scaled: aluminum fluoride 0%, vehicle 100%; Guanine nucleotide-binding protein G(i) subunit alpha-3 (Rattus norvegicus), P08753; 210,000 tested, 0.42% active; percent of control (FP), % (concentration not given with the values);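 active means replicate mean at 85% of control or lower, very high polarization wells dropped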;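 further: wells of about 15 µL received 100 nL stock; the first replicate is given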
Target sequence (P08753 whole entry, looked up): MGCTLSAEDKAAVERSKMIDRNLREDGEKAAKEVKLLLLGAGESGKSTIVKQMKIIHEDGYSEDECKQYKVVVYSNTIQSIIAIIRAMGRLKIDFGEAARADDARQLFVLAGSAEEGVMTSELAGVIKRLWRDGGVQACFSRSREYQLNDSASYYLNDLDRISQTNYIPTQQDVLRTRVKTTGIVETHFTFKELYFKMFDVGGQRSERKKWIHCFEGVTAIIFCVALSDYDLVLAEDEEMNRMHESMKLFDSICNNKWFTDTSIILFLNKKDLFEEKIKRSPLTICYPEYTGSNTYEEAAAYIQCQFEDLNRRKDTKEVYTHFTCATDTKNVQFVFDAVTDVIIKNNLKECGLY
Sa growth inh: S. aureus growth inhibition at 42 and 30 °C, primary screen, LtaS inhibitor project, RN4220, two temperatures; OD600, 20 h, 42 °C; stronger effect = lower value; relative growth, % (test concentration not listed); 170,000 tested, 0.53% active;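 active means growth at 42 °C up to 50% and 20 or more points under that at 30 °C, or under 10% at both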;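 further: 300 nL library stock went into each well; scaled to the means of positive and negative controls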
Sa growth inh second temp: further read-out of Sa growth inh, marked with its call; relative growth, %; measured here: growth at 30 °C;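 optical density after 20 h as mean of two plates; 100% = untreated growth and lower means inhibition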
An asterisk follows results filed as active; / = not tested or not shown.

Under each structure – HCMV UL50-53 inh, GIV-Gai inh, Sa growth inh, Sa growth inh second temp
1) Cc1oc(-c2ccccc2Cl)nc1Cn1cccc1C1=NC(c2ccccc2)CO1 (stereo unspecified)
  6, 101, 105, 89
2) COc1cccc(/C=C2\CN(C)C/C(=C\c3cccc(OC)c3)C2=O)c1
  /, 100, 74, 48
3) CN(CCO)C(=O)c1ccc2c(c1)C(=O)c1ccccc1-2
  /, 105, 120, 83
4) O=C(Nc1cccc(Br)c1)c1cccc(Nc2cc(-c3ccccc3)ncn2)c1
  -1, 108, /, /
5) CCc1nc(-c2cc(S(=O)(=O)N3CCCC(C(=O)N4CCOCC4)C3)c(C)s2)no1 (stereo unspecified)
  -10, 106, /, /
6) CN(CC(=O)Nc1ccc(OC(F)(F)F)cc1)C(=O)C1CC(=O)N(C2CCCC2)C1 (stereo unspecified)
  -14, /, 85, 91
7) COc1ccc(/C=C\C(=O)NC2CC(=O)N(c3ccccc3)C2)cc1OC (stereo unspecified)
  /, 102, 86, 97
8) CCOC(=O)c1sc2nc(C)nc(Cl)c2c1C
  21, /, 123, 91
9) CCOc1ccc(N(CC)C(=O)C2CCCN2S(=O)(=O)c2cccc3nsnc23)cc1 (stereo unspecified)
  -82, 98, 105, 87
10) C/C(=N\N=C1\NC(=O)CS1)c1cccs1
  -50, 106, 102, 83
11) CCC1CCc2c(sc(NC(=O)C3c4ccccc4Oc4ccccc43)c2C(=O)OC)C1 (stereo unspecified)
  -30, 105, 100, 93
12) CCN=c1scc(-c2ccc(O)c(C(N)=O)c2)n1/N=C/c1ccc2c(c1)OCCO2
  -19, /, 62, 35
13) CCc1cc(=O)oc2c3c(c(Cl)cc12)OCN(Cc1cccc(OC)c1)C3
  -11, 99, 85, 92
14) CC(C(=O)N1CCCCC1)N1c2cccc3cccc(c23)S1(=O)=O (stereo unspecified)
  1, 103, 101, 98
15) O=C1c2ccccc2-c2onc3c(Br)cc(NCc4ccccc4)c1c23
  /, -21*, 96, 85
16) O=C(CSC1=Nc2ccccc2C2=NC(CC(=O)NCc3ccccc3)C(=O)N12)NCc1ccco1 (stereo unspecified)
  -6, 103, 89, 85
17) CCOC(=O)c1c(C)c(C#N)c(N)n1-c1ccc(C)cc1
  -4, 109, 96, 83
18) CC(=O)Nc1ccc(CNCCc2nnc3ccccn23)cc1
  -12, /, 82, 92
19) COc1cc(-c2nc3ccccc3[nH]2)cc(OC)c1OC
  -6, 112, 101, 97
20) O=C(NC1CC1)c1ccc2c(c1)N(Cc1ccccc1)C(=O)c1ccccc1S2=O (stereo unspecified)
  13, 103, 100, 96
21) CC(=O)Nc1ccc(NC(=O)Cn2c(=O)ccc3cc(S(=O)(=O)N4CCC(C)CC4)ccc32)cc1
  /, 100, 100, 80
22) CCc1c(-c2ccccc2)nc2ccccc2c1C(=O)NC(C)c1ccccc1 (stereo unspecified)
  /, 102, 117, 66
23) COc1cccc(/C=N/n2c(-c3ccco3)csc2=NC2CCCCC2)c1O
  -14, /, 81, 88
24) O=C(NC1CC1)C1CCCN1S(=O)(=O)c1ccccc1 (stereo unspecified)
  -17, 104, 89, 76
25) Cc1cc(OCCN2CCOCC2)nc(N2CCOCC2)n1
  5, 107, 100, 111
26) O=C(CN1N=C(c2ccccc2)c2cc(Cl)ccc2S1(=O)=O)Nc1ccc2c(c1)OCO2
  7, 106, /, /
27) CCOC(=O)c1cc(-c2ccc(S(=O)(=O)NC3CC3)s2)on1
  -77, 105, 93, 79
28) O=C(CCS(=O)(=O)c1ccc2c(c1)CCN2C(=O)C1CC1)NCc1ccccc1
  -16, 103, 102, 88
29) CCOC(=O)c1ccsc1NC(=O)/C=C/c1cccs1
  -28, 107, 83, 77
30) CCOC(=O)C1=C(C)NC(C)=C(C(=O)OCC)C1C(=O)OCC(=O)NCc1ccccc1OC
  -8, /, 97, 94
31) c1ccc(-c2nc(NC3CC3)nc(-n3ccnc3)n2)cc1
  -2, /, 86, 73
32) Cc1ccc(-n2nc(C(=O)NC(C)C)c(=O)n(C)c2=O)cc1
  /, 98, 85, 93
33) COc1cccc(N2CCN(C(=O)c3c4c(nc5ccccc35)C(=O)N(C3CCCCC3)C4)CC2)c1
  /, 95, 74, 79
34) CC(C)CCNC(=O)c1sc2ccc(S(=O)(=O)N3CCCCC3)cc2c1N
  /, 100, 99, 88
35) O=C(O)c1ccc(CSc2ccc(Cl)cc2)o1
  -3, 98, 119, 90
36) CN1C(=O)/C(=C/C=C2/Sc3ccccc3N2CCO)SC1=S
  -33, 245, 102, 83
37) N#Cc1ccc(CSc2nc(-c3ccccc3)cc(=O)[nH]2)cc1
  -38, 96, 93, 84
38) CCOC(=O)C1CCCN(c2nc3c(C)cc(C)cc3s2)C1 (stereo unspecified)
  -11, 92, 79, 52
39) O=S(=O)(c1ccc(-c2csc(Nc3ccc(Br)cc3)n2)cc1)N1CCCCC1
  -6, /, 84, 96
40) CSC(C)/C(=N/O)c1ccccc1 (stereo unspecified)
  -1, 100, 112, 88

Some values from the list.
compound 33 @ Sa growth inh: 74
compound 23 @ HCMV UL50-53 inh: -14
compound 2 @ GIV-Gai inh: 100

Next part
Under each structure – HCMV UL50-53 inh, GIV-Gai inh, Sa growth inh, Sa growth inh second temp
41) Cc1cc(C)c(NC(=O)Cn2c(=O)n(CC(=O)NCc3ccccc3Cl)c(=O)c3sccc32)c(C)c1
  -30, 105, 97, 107
42) CCc1ccc(NC(=O)N2CCn3c(C)ccc3C2CC)cc1 (stereo unspecified)
  /, 119, 103, 87
43) O=C(CCS(=O)(=O)c1nc(-c2ccc3c(c2)OCO3)cc(C(F)(F)F)n1)ON=C1CCCCC1
  -22, 104, 88, 89
44) Cc1nn(-c2ccccc2)nc1C(=O)N1CCN(S(=O)(=O)c2ccc3c(c2)OCCCO3)CC1
  -34, /, 82, 91
45) Cn1nnc2cc(C(=O)N3CCSCC3)ccc21
  -10, 101, 100, 77
46) CC(C)(C)NC(=O)COc1ccc(CNC2C3CC4CC(C3)CC2C4)cc1 (stereo unspecified)
  /, 102, 97, 87
47) COc1cc(-c2nc3cc(OC(C)=O)ccc3c(=O)o2)cc(OC)c1OC
  -29, 104, 82, 76
48) CCOC(=O)/C(C#N)=C/Nc1ccn(C)n1
  -33, 100, 89, 81
49) CCc1ccc(NC(=O)CCCn2nc(C)c3c(C)n(-c4ccccc4)nc3c2=O)cc1
  /, 98, 85, 90
50) N#C/C(=C\c1ccc(SCc2ccc(Cl)cc2)o1)C(=O)NCc1ccco1
  -22, 159, 88, 64
51) CC(C)N1CCc2nc(NC(=O)CN3C(=O)c4ccccc4C3=O)sc2C1
  0, 96, /, /
52) CCN(CC)S(=O)(=O)c1cc(C(=O)NCCc2ccc(Cl)cc2)ccc1F
  -13, /, 111, 88
53) CCC(=O)Nc1ccc2c(c1)nc(CN1CCN(C(C)=O)CC1)n2CC
  -14, 109, /, /
54) Cc1ccccc1CSCc1ccc(C(=O)N2CCNc3ccccc3C2)o1
  /, 99, 49, 45
55) CCC(C)(C)NC(=O)C1CCCN(S(=O)(=O)c2cc3c(cc2C)NC(=O)CO3)C1 (stereo unspecified)
  -7, 101, /, /
56) O=c1c2ccccc2ncn1Cc1ccc(F)cc1
  -13, /, 123, 63
57) O=C1Nc2ccccc2/C1=C/C(=O)c1ccc(Cl)cc1
  3, /, 79, 74
58) Cn1c(=O)n(C)c2cc(S(=O)(=O)N3CCCC3)ccc21
  /, 104, 87, 86
59) O=c1c(-c2ccc(Oc3ccccc3)cc2)[n+]([O-])c2ccccc2n1O
  -64, 116, 94, 97
60) CC1CCCN(S(=O)(=O)c2ccc(S(=O)(=O)N(Cc3cccs3)Cc3cccs3)cc2)C1 (stereo unspecified)
  -5, 104, 68, 79
61) CC(C)CC(=O)Nc1ccc(SCc2cc(=O)n3c(ncn3C(C)C)n2)cc1
  -38, 102, /, /
62) Cc1ccc(Cl)cc1NC(=O)Cc1ccc(-n2c(C)nc3cccnc32)cc1
  /, 114, 85, 92
63) Cn1nnc2c(N3CCN(c4ccccc4F)CC3)ncnc21
  /, 91, 118, 89
64) CCOC(=O)Cc1c(C)nc2c(-c3ccc(Cl)cc3)c(C(F)(F)F)nn2c1C
  4, 105, 99, 99
65) CCc1ccc(-n2ncc(-c3cc(C(=O)NCc4cccnc4)c4ccccc4n3)c2C)cc1
  -45, 99, /, /
66) CC1=CC2(O)OCCN(Cc3ccccc3)C2=CC1=O (stereo unspecified)
  7, 97, 64, 3
67) NC(=O)C1CCN(c2nccc(C(F)(F)F)n2)CC1
  12, 104, 101, 99
68) CCn1nnc2cc(C(=O)OCC(=O)Nc3cc(OC)cc(OC)c3)ccc21
  -4, /, 102, 95
69) COc1ccc(C2C(=O)N(C3CCCC3)CC(=O)N2Cc2cccs2)cc1 (stereo unspecified)
  10, 107, 97, 100
70) COC(=O)c1ccc(CSc2cc(C)c3ccccc3n2)o1
  5, /, 109, 98
71) O=C(O)CSCC(=O)c1c[nH]c2ccccc12
  -12, 99, 103, 84
72) CN(C)S(=O)(=O)N1CCNCC1
  -4, 96, 96, 83
73) Cc1ccccc1C(=O)Nc1nc(-c2ccc3c(c2)N(C)C(=O)CO3)cs1
  -12, 102, /, /
74) c1ccc(OCCOc2ccccc2-c2nnco2)cc1
  7, /, 100, 96
75) CNC[C@H](O)[C@@H](O)[C@H](O)[C@H](O)CO
  -34, 95, 94, 94
76) OCCN=C(c1ccc(Cl)cc1)N1CCN(C(=NCCO)c2ccc(Cl)cc2)CC1
  -13, /, 93, 89
77) COc1ccc(CNc2nc3c(c(=O)n(C)c(=O)n3C)n2Cc2ccccc2Cl)cc1
  -29, 104, 102, 89
78) CCN(C(=O)CN1c2cccc3cccc(c23)S1(=O)=O)c1ccccc1
  -28, 100, 103, 80
79) CC1CC(=O)C2=C(OC(N)=C(C#N)C2c2ccccc2C(F)(F)F)O1 (stereo unspecified)
  -15, /, 108, 130
80) O=C(Cn1cnc2ccccc21)N/N=C1/CCSc2ccc(F)cc21
  -12, /, 112, 90

Molecules shown so far containing an NH in an aromatic ring:
Under each structure – HCMV UL50-53 inh, GIV-Gai inh, Sa growth inh, Sa growth inh second temp
19) COc1cc(-c2nc3ccccc3[nH]2)cc(OC)c1OC
  -6, 112, 101, 97
37) N#Cc1ccc(CSc2nc(-c3ccccc3)cc(=O)[nH]2)cc1
  -38, 96, 93, 84
71) O=C(O)CSCC(=O)c1c[nH]c2ccccc12
  -12, 99, 103, 84

Part of the list above, limited to HCMV UL50-53 inh:
cpd	compound	HCMV UL50-53 inh
69	COc1ccc(C2C(=O)N(C3CCCC3)CC(=O)N2Cc2cccs2)cc1 (stereo unspecified)	10
64	CCOC(=O)Cc1c(C)nc2c(-c3ccc(Cl)cc3)c(C(F)(F)F)nn2c1C	4
61	CC(C)CC(=O)Nc1ccc(SCc2cc(=O)n3c(ncn3C(C)C)n2)cc1	-38

The main list resumes; the five compounds before the break are reprinted first.
Under each structure – HCMV UL50-53 inh, GIV-Gai inh, Sa growth inh, Sa growth inh second temp
76) OCCN=C(c1ccc(Cl)cc1)N1CCN(C(=NCCO)c2ccc(Cl)cc2)CC1
  -13, /, 93, 89
77) COc1ccc(CNc2nc3c(c(=O)n(C)c(=O)n3C)n2Cc2ccccc2Cl)cc1
  -29, 104, 102, 89
78) CCN(C(=O)CN1c2cccc3cccc(c23)S1(=O)=O)c1ccccc1
  -28, 100, 103, 80
79) CC1CC(=O)C2=C(OC(N)=C(C#N)C2c2ccccc2C(F)(F)F)O1 (stereo unspecified)
  -15, /, 108, 130
80) O=C(Cn1cnc2ccccc21)N/N=C1/CCSc2ccc(F)cc21
  -12, /, 112, 90
81) COc1ccc(Cl)cc1NC(=O)c1cnc(SC)nc1-c1ccccc1
  /, 102, 125, 103
82) Cc1cccc(OCCCn2c(C3CCCO3)nc3ccccc32)c1 (stereo unspecified)
  -13, 107, /, /
83) Cc1ccc(-c2cc(C(=O)O)c3c(-c4ccc(Cl)cc4)[nH]nc3n2)cc1
  -35, 107, /, /
84) CCCCSc1nnc2n(Cc3ccc(F)cc3)c(=O)c3sccc3n12
  -9, 99, /, /
85) O=C(CCC(=O)N1CCc2cc(S(=O)(=O)NCC3CCCO3)ccc21)N1CCOCC1 (stereo unspecified)
  -25, 94, /, /
86) COc1cc(S(=O)(=O)Nc2ccccc2NC(=O)CN2CCOCC2)c(OC)cc1NC(C)=O
  -20, 104, 124, 100
87) Cc1nc(COc2ccc(C(C)(C)C)cc2)[nH]c(=O)c1Cl
  -29, 107, 107, 93
88) O=C(O)CC1OC(=O)c2ccccc21 (stereo unspecified)
  -2, 100, 115, 111
89) CCN1C(=O)C2C(c3ccc(O)cc3)NC(CO)(C(=O)OC)C2C1=O (stereo unspecified)
  -15, 104, 124, 92
90) O=C(NC(Nc1ccccc1C(F)(F)F)C(=O)c1ccccc1)c1ccco1 (stereo unspecified)
  -3, /, 105, 99
91) CCn1cc(S(=O)(=O)c2ccc(OC)cc2)c(=O)c2cc(F)c(N3CCC(C)CC3)cc21
  /, 110, 108, 90
92) CCCCc1nnc(SCc2cc(=O)c3cc(C(=O)OCC)ccc3[nH]2)n1C
  /, 105, 90, 86
93) CCOc1ccc(NC(=O)c2ccc3c(SCC(=O)O)c4c(nc3c2)CCC4)cc1
  -54, 101, 104, 94
94) Cc1ccc(C(=O)Nc2cccc(-n3c(C)nc4ncccc4c3=O)c2)cc1
  11, 105, /, /
